# Screens from PubChem BioAssay.
# miR-21 reporter = miR-21 reporter, rising signal; HeLa miR-21 FLuc reporter, luciferase, 48 h; 340,000 tested, under 10 active; Potency, µM (highest dose often 38.3 µM), without a hit: at the highest dose reporter change, positive = more light; active = well fitted rising curve with a large enough effect; inconclusive = small, poorly fitted or top-dose-only effect; inactive = no such curve, though single readings can be large or run the other way;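 note: % of control where 0% means no effect; miR-21 action dims this reporter so a rising signal means less miR-21 action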
#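 Compounds were titrated across several concentrations (up to approximately 40 uM) and incubated 48 hours with HeLa miR-21-FLuc reporter cells (miR-21 target sequence downstream of FLuc, endogenous miR-21). Readout was firefly luciferase luminescence after lytic detection reagent.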
# Rango release inh = prevents RanGTP from dissociating the Rango-importin beta complex. O95149+P62826. Biochemical FRET Rango-importin beta, RanGTP-induced dissociation. Potency, µM (doses to about 46.1 µM), inactives show at the top dose activity change, negative = inhibition. 340,000 tested, 0.071% active; active means falling FRET ratio curve, often poorly fitted, with flat reads before Ran was added; inconclusive means other falling curves, or compound fluorescence or quenching; inactive means flat or rising ratio curve;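 note: potency is the fitted concentration of half-maximal effect; % of control where 0% means no effect; nearly all actives have a fitted effect of over 45% in size; -100% = wells without RanGTP and RCC1; the record marks most hits as doubtful in a second field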
#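 Compounds preincubate 5 min with complex of recombinant Rango and importin beta in PBS with 1 mM DTT. Ran (0.6 uM) loaded with 2 mM GTP plus 0.2 uM RCC1 starts dissociation; FRET is recorded 45 min later.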
# GLA inh pH 4.5 = alpha-galactosidase A (human) inhibition, pH 4.5; P06280; purified enzyme, 4-MU-alpha-Gal fluorescence, pH 4.5; activity change, negative = inhibition, % at 105 µM; 230,000 tested, under 10 active; AID 1467; inconclusive = small, poorly fitted or top-dose-only inhibition, or a rising curve; inactive = flat fitted curve, though single readings scatter; no compound was filed as active;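 note: 0% = full activity with enzyme and -100% = basal without enzyme; dose as in the result columns while the protocol names 77 µM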
# Target sequence (P06280 whole entry, looked up): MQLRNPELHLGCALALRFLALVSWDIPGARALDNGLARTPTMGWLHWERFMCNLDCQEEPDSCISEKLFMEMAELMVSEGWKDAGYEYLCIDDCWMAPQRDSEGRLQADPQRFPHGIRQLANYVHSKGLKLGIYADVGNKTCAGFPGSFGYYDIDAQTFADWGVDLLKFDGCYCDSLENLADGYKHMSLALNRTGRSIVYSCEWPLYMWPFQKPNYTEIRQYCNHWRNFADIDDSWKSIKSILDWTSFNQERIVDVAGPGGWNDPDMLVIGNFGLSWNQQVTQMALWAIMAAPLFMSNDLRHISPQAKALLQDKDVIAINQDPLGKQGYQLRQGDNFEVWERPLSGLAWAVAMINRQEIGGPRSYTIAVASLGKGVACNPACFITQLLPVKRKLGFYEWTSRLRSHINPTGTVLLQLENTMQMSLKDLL
# Rango-impB inh = Rango-importin beta binding inhibition | Q14974 | Rango CFP/YFP FRET sensor + importin beta, 45 min | Potency, µM (top dose mostly 92.2 µM), for inactives: at the highest dose inhibition of complex formation | 340,000 tested, 0.031% active | AID 540263; active = rising FRET ratio curve, often small or poorly fitted; inconclusive = mostly compound fluorescence or quenching in the first reads; inactive = flat curves in all reads;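 note: potency is the fitted concentration of half-maximal effect; 0% = DMSO wells and 100% = buffer wells lacking importin beta; nearly all actives have a fitted effect of over 15% in size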
#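 Inhibition scored from the CFP 486 nm/YFP 530 nm FRET ratio 45 min after adding 0.125 microM importin beta to 50 nM Rango biosensor preincubated 5 min with compound (room temperature, PBS with DTT, Tween-20, BSA). No-importin wells as positive control.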
# The depositor's hits bear a star; u = inconclusive; x = not tested or not shown. These rows are one share of the data; the hit share may differ from the screen's.
# Sample of the layout, 2 compounds:
miR-21 reporter	SMILES	Rango release inh	GLA inh pH 4.5	Rango-impB inh
-13.4%	CC(=C\c1ccccc1)/C=C1/SC(=O)N(CCCC(=O)Nc2ccc(C(=O)O)cc2)C1=O	0.7%	-6.9	2.6%
-10.7%	Cc1nc2c(C#N)c(-c3ccc(Cl)cc3)ccn2n1	-13.5%	5.3	6.7%

# Results, from the start:
miR-21 reporter	SMILES	Rango release inh	GLA inh pH 4.5	Rango-impB inh
-13.4%	CC(=C\c1ccccc1)/C=C1/SC(=O)N(CCCC(=O)Nc2ccc(C(=O)O)cc2)C1=O	0.7%	-6.9	2.6%
-10.7%	Cc1nc2c(C#N)c(-c3ccc(Cl)cc3)ccn2n1	-13.5%	5.3	6.7%
-0.3%	Cc1nnc(SCCOC(N)=O)n1C	-6.0%	0.0	-0.6%
-12.9%	O=C(Nc1nnc(Cc2ccc([N+](=O)[O-])cc2)s1)c1ccc2c(c1)OCO2	-7.6%	2.3	2.7%
-4.9%	O=C(NCCc1ccccc1)c1ccc(NC2=NC3CS(=O)(=O)CC3S2)cc1 (centres undefined)	-0.8%	1.3	1.1%
15.1%	CCc1ccc(/C=C2\SC(=S)N(CCCC(=O)Nc3ccc(C(=O)O)cc3)C2=O)cc1	10.7%	x	-3.2%
3.3%	COc1cccc(CN2CCN(S(=O)(=O)c3ccc(NC(C)=O)cc3)CC2)c1OC	-1.1%	0.3	-2.9%
0.0%	Cc1ccc(S(=O)(=O)NCCC(=O)NCc2ccccc2)cc1	1.4%	5.6	-0.7%
1.0%	COCCOC(=O)C1=C(C)N(c2ccccc2)C(=O)NC1c1cccc([N+](=O)[O-])c1 (centres undefined)	0.3%	1.8	0.1%
-0.2%	CC(=O)N1CC2([N+](=O)[O-])CN(C(C)=O)CC([N+](=O)[O-])(C1)C2(C)C	7.9%	-0.5	-3.2%
6.9%	Cc1ccc(-n2c(O)c(C=NCc3ccccn3)c3ccccc3c2=O)cc1C	44.0%	-9.2	0.5%
-32.5%	CCOc1ccc2nc(NC(=O)CN3CCN(C)CC3)sc2c1	-5.7%	6.4	0.0%
-7.5%	O=[N+]([O-])c1c(NCCCO)cc(Sc2ccc(Cl)cc2)c2nonc12	-1.7%	-7.2	-4.3%
x	C=CCC(C(=O)Oc1c(C(C)(C)C)cc(C)cc1C(C)(C)C)c1ccccc1 (centres undefined)	14.4%	x	-2.7%
x	CN(Cc1ccccc1)C(=O)COC(=O)c1ccc(=O)n(Cc2ccccc2)n1	0.5%	x	-1.5%
x	COCCN(Cc1ccccc1)C(=O)C1CCN(S(=O)(=O)c2ccc(OC)c(OC)c2)CC1	8.0%	x	3.8%
-48.9%	N#C/C(=C(/O)CN1CCCCC1)c1nc(-c2ccc(Cl)cc2)cs1	-2.7%	5.1	-1.6%
23.3%	NC(=O)N/N=C(/CCCCCC/C(=N\NC(N)=O)c1ccccc1)c1ccccc1	u	-14.8	u
-7.4%	COc1ccc(C(=O)N2CCCc3ccccc32)cc1OC	0.5%	x	0.1%
-7.7%	Cc1sc2nc(-c3ccncc3)[nH]c(=O)c2c1-c1ccccc1	x	6.3	x
-26.3%	O=C(NCCCN1CCOCC1)c1ccc(Br)cc1	0.9%	-0.9	u
-15.7%	COC(=O)c1sc2nc(-c3ccccc3)nc(N3CCN(C)CC3)c2c1C	17.3%	-17.1	0.3%
0.6%	O=C(NCCO)c1ccc(-c2nnc(Nc3ccc(O)cc3)c3ccccc23)cc1	11.5%	x	1.3%
3.3%	COc1ccc(C(=O)NCc2nnc(SCC(=O)N3CCC(C)CC3)o2)cc1	26.6%	1.3	1.8%
-24.4%	CSc1sc(C(=O)Nc2ccc(F)cc2F)c2c1C=CCC2	-1.3%	-6.0	-2.4%
u	O=C(Nc1ccncc1)c1c(Cl)cccc1Cl	-4.9%	x	4.8%
-1.3%	CC(=O)NC1(C(F)(F)F)C(=O)Nc2c1c(=O)[nH]c(=O)n2-c1ccccc1 (centres undefined)	-15.4%	7.4	0.0%
-38.0%	CCc1ccc2nc(NC(=O)Cn3cnc4ccccc4c3=O)sc2c1	-14.6%	9.8	5.1%
-21.4%	O=C(Nc1ccccc1)O/N=C1/CCCc2occc21	14.9%	2.8	u
-3.8%	Cc1ccccc1-n1c(SCC(=O)N2CCOCC2)nc(O)cc1=O	2.4%	-2.0	-3.1%
-2.9%	Cc1cc(C)nc(-n2nc(C)c(Sc3ccc(F)cc3)c2N)n1	2.3%	3.0	-0.9%
-5.7%	Cc1cc(C(F)(F)F)nc(NCc2ccc(F)cc2)n1	-0.4%	-2.1	-1.3%
-18.0%	Cc1ccc(NC(=O)CN(C)Cc2ccc(F)cc2)c([N+](=O)[O-])c1	1.0%	-10.3	-2.0%
-1.9%	Nc1cc(C(=O)N/N=C/c2cccc([N+](=O)[O-])c2)n[nH]c1=O	-6.8%	0.7	0.9%
x	COc1ccc(CC(=O)OCC(=O)NCC2CCCO2)cc1OC (centres undefined)	0.2%	x	-0.9%
-3.1%	C=CCOc1ccc(/C=C2/C(=N)N3N=C(CC(=O)N4CCCC4)SC3=NC2=O)cc1OC	-7.8%	x	u
-9.6%	COc1ccc(CC(=S)N2CCOCC2)cc1	5.4%	0.7	-0.2%
1.4%	CCCCN(C)CCCN1C(=O)C2C(C(=O)Nc3cccc(OC)c3)C3C=CC2(O3)C1C(=O)NC1CCCCC1C (centres undefined)	-12.4%	x	u
-2.5%	O=c1onc(-c2cccs2)n1Cc1ccccc1	7.3%	-0.1	-1.9%
25.1%	CCn1c(SCC(=O)c2[nH]c(C)c(C(C)=O)c2C)nnc1-c1cccs1	-14.0%	6.0	-0.1%
-19.0%	CCOC(=O)N1CCN(C(=O)CSc2nnc(-c3ccccc3OC)o2)CC1	-10.3%	-1.5	-1.2%
-21.2%	O=S(=O)(Nc1ccc2c(c1)nc1n2CCN(Cc2ccccc2)C1)c1ccccc1	-12.3%	21.0	u
6.2%	O=C(CCCC(=O)N(c1ccc(F)cc1)C(C(=O)NC1CCCC1)c1ccc(O)cc1)Nc1ccccn1 (centres undefined)	2.8%	x	-6.0%
-33.3%	Cc1ccc(C(=O)N/C(=C/c2ccco2)C(=O)Nc2cccc(C(=O)O)c2)cc1	u	x	u
5.1%	O=S(=O)(c1cccc(F)c1)N1CCN(C(=S)NCC2CCCO2)CC1 (centres undefined)	-22.6%	x	-0.9%
x	Cc1ccccc1CN1C(=O)[C@@H]2Cc3c([nH]c4ccccc34)C(C)(C)N2C1=O	-9.5%	x	-2.8%
x	O=C(COC(=O)CCc1ccccc1)NCc1ccccc1	16.7%	x	-0.3%
-49.1%	N/C(=N\OC(=O)c1ccccc1Br)c1cccc([N+](=O)[O-])c1	0.7%	x	0.6%
-3.4%	CC(=O)NCCn1c(SCc2ccccc2C)nc2ccccc2c1=O	7.4%	4.3	1.1%
-7.2%	COC(=O)/C=C1/S/C(=N/N=C/c2ccc(N(C)C)cc2)NC1=O	x	0.1	x
x	O=C1NC(=O)C(Cc2ccccc2)(c2ccccc2)N1 (centres undefined)	-0.6%	x	0.9%
-0.8%	CC(NC(=S)NC(=O)c1ccccc1Br)c1ccccc1 (centres undefined)	2.0%	x	u
x	O=C(O)c1cccc(Oc2ccc(C(=O)O)c([N+](=O)[O-])c2)c1	-10.1%	x	0.1%
x	CN(CC(=O)Nc1cccc(F)c1)C(=O)c1ccc2c(c1)OCCO2	5.5%	x	u
-6.9%	COc1ccc(NC(=O)c2cc(-c3ccccc3)oc2C)cc1	1.7%	-1.1	-0.5%
25.6%	COc1cc(C(=O)NCc2ccncc2)cc(Br)c1OCc1ccccc1	-1.9%	x	2.8%

# Other records.
miR-21 reporter	SMILES	Rango release inh	GLA inh pH 4.5	Rango-impB inh
-4.6%	CCCN1CCN(c2ccc([N+](=O)[O-])cc2C#N)CC1	3.8%	-9.0	0.4%
15.5%	Cc1ccccc1OCCOC(=O)c1c(-c2ccccc2)noc1C	1.2%	x	0.7%
-24.6%	O=C(/C=C/c1ccccc1)NCCSCc1ccccc1	8.3%	6.5	6.9%
-14.4%	COc1ccc(NC(=S)NCC2CCCO2)c(C)c1 (centres undefined)	0.8%	-7.1	2.6%
x	CCOC(=O)[C@@H]1CSCCS(=O)(=O)N1Cc1ccccc1Br	-17.7%	x	-0.1%
-5.3%	O=C1C(=O)N(CCN2CCOCC2)C(c2ccncc2)/C1=C(/O)c1ccc2c(c1)OCO2 (centres undefined)	-11.3%	7.1	3.6%
-1.5%	Cn1c(/C=N/n2cnnc2)nc2ccccc21	-14.2%	-5.0	2.3%
1.2%	CC1=C(CC/C(C)=N/NC(N)=S)C(C)(C)CCC1	1.7%	12.4	2.4%
-2.9%	CCCCOc1ccc(/C=C/C(=O)OCC(=O)NC(=O)NCC(C)C)cc1OCC	-2.9%	-2.0	0.7%
-4.6%	C/C(=N\N1CCN(c2ccc(Cl)cc2)CC1)c1cccs1	13.2%	-3.6	5.9%
0.0%	COCCN1C2=C(COC(C)(C)C2)C(=S)NC1c1ccccc1 (centres undefined)	2.8%	-7.9	2.6%
-1.7%	Cc1nc([N+](=O)[O-])cn1CC(=O)Nc1ccc2c(c1)OCO2	3.2%	1.9	1.3%
14.8%	O=S(=O)(N[C@H]1C[C@@H](NS(=O)(=O)OCC(Cl)(Cl)Cl)C2CCCCC21)OCC(Cl)(Cl)Cl (some centres undefined)	-8.2%	x	3.1%
15.1%	CN(CC(=O)Nc1ccc(F)cc1)CC(=O)Nc1ccc(Cl)c(S(=O)(=O)N2CCOCC2)c1	-0.3%	-22.5	1.8%
1.9%	Cn1ccnc1C(O)c1ccccc1 (centres undefined)	1.8%	-2.1	-1.5%
-7.8%	O=c1oc2ccc(Br)cc2cc1-c1nc2ccccc2o1	-8.7%	2.8	5.5%
-2.7%	COc1cc(C2CC(=O)Oc3c(C(CCN4CCCC(C)C4)c4ccc(N(C)C)cc4)c(OC)cc(OC)c32)cc(OC)c1OC (centres undefined)	12.2%	-1.4	6.2%
9.6%	CCOC(=O)C1CCCN(C(=O)C(=O)Nc2ccc3nc4n(c(=O)c3c2)CCCCC4)C1 (centres undefined)	4.6%	x	0.2%
1.9%	COc1ccccc1Nc1nc2nonc2[nH]c1=O	-3.4%	9.0	-1.5%
-4.3%	COc1ccc(C(=O)N/N=C(\N)c2cc3ccccc3oc2=O)cc1	11.5%	x	6.1%
-33.4%	N/C(=N\OC(=O)COc1ccc(Cl)cc1Br)c1cccnc1	0.0%	-1.4	-1.2%
7.2%	CC(=O)c1cccc(NC(=O)CN2CCc3cc4c(cc3C2C)OCCCO4)c1 (centres undefined)	8.4%	x	1.5%
2.8%	Cn1c(CC(=O)Nc2ccccc2F)nnc1SCC(=O)Nc1nccs1	-3.4%	x	-0.3%
-2.5%	CCN(CC)c1ccc(NC(=O)COc2ccc(N(C)S(=O)(=O)c3cccs3)cc2)cc1	9.5%	-2.5	-1.7%

# Exported comma-delimited: part of the list above
mol,miR-21 reporter,Rango release inh,GLA inh pH 4.5,Rango-impB inh
CCOC(=O)C1CCCN(C(=O)C(=O)Nc2ccc3nc4n(c(=O)c3c2)CCCCC4)C1 (centres undefined),9.6%,4.6%,x,0.2%
COc1ccccc1Nc1nc2nonc2[nH]c1=O,1.9%,-3.4%,9.0,-1.5%
COc1ccc(C(=O)N/N=C(\N)c2cc3ccccc3oc2=O)cc1,-4.3%,11.5%,x,6.1%
N/C(=N\OC(=O)COc1ccc(Cl)cc1Br)c1cccnc1,-33.4%,0.0%,-1.4,-1.2%
CC(=O)c1cccc(NC(=O)CN2CCc3cc4c(cc3C2C)OCCCO4)c1 (centres undefined),7.2%,8.4%,x,1.5%

# Further results follow.
miR-21 reporter	SMILES	Rango release inh	GLA inh pH 4.5	Rango-impB inh
-4.1%	CC(=O)c1cc(-c2ccccc2)n(CC(=O)N2CCN(C3CCCC3)CC2)c1C	13.3%	0.6	-1.7%
-6.7%	CC(C)=CCC(C)(C)CNC(=O)NC1CCCCC1	-0.7%	-1.2	-4.5%
-23.7%	N#Cc1ccccc1Sc1ccccc1C(=O)OCC(=O)N1CCN(C(=O)c2ccco2)CC1	-1.3%	-4.7	0.9%
-0.2%	CC(C)[C@@H]1NC(=O)c2cc([N+](=O)[O-])cc(I)c2NCCCC[C@@H](C(=O)NC(CC(=O)O)C(N)=O)NC(=O)[C@H](CO)NC1=O (some centres undefined)	x	-8.1	x
